Assay outcomes from PubChem.
A488 fluor – compound autofluorescence in A488 spectral region | compound autofluorescence, A488 spectral region, dye equivalency; stronger effect = higher value | max dye equivalency, M | 59,000 compounds, 0.1% hits | AID 591; active = above 10 nM dye equivalent; inconclusive = 1 to 10 nM; inactive = 1 nM or less; about half of its hits are not listed in these tables;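 further: highest value over a series up to 38 µM; compound alone in buffer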
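Intrinsic compound fluorescence is measured in 100 mM Tris buffer at pH 8.0 following 15 min incubation at room temperature. Intensities at 480 nm excitation/540 nm emission are calibrated to an on-plate A488 concentration series, giving dye-equivalent concentrations.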
TSHR agonist – agonists of human thyroid stimulating hormone receptor. P16473. HEK293-CNG-TSHR cells (CNG channel as cAMP sensor), membrane potential dye, cAMP. Potency, µM (highest dose often 57.1 µM), inactives show at the highest dose activation, actives largely listed as activators. 73,000 compounds, 0.48% hits. AID 926; active = well fitted activation curve of enough size with the parental cells flat; inconclusive = any curve in the parental cells; inactive = parental cells flat and receptor cells flat or falling; further: potency means the concentration at half of the fitted maximal effect; % of control where 0% means no effect; weak receptor curves with flat parental cells got no call and are not listed
Target sequence (P16473 whole entry, looked up): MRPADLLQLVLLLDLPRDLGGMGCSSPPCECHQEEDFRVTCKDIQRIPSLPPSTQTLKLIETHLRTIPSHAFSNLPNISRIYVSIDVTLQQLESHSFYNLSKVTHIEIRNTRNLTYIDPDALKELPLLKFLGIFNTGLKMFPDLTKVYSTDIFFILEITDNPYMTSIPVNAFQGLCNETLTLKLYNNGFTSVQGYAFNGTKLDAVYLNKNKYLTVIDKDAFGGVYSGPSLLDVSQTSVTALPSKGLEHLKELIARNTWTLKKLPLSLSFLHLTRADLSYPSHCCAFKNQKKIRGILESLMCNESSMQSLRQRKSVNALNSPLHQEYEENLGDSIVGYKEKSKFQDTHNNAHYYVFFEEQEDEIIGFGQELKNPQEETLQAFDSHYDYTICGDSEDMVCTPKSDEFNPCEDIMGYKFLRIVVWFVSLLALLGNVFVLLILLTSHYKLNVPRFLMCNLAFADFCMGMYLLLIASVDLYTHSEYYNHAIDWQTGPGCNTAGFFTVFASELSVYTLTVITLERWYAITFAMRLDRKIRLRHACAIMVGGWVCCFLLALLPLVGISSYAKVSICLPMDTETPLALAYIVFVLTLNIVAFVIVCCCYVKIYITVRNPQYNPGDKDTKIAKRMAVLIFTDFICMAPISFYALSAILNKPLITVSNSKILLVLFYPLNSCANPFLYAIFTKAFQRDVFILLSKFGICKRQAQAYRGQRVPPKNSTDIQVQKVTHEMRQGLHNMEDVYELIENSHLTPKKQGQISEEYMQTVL
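HEK 293 cells stably expressing TSHR and a cAMP-gated CNG channel; parental CNG-only cells as counterscreen. Cells preloaded 60 min with membrane potential dye plus 100 uM RO 20-1724, then compound 30 min; fluorescence read at 590 nm.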
A647 autofl – compound autofluorescence in A647 spectral region. 59,000 tested, under 10 active. Compound fluorescence, A647 channel (570/671 nm), Tris buffer. max dye-equivalent concentration, M; active means above 1 µM dye equivalent; inconclusive means 0.1 to 1 µM; inactive means 0.1 µM or less;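 further: values scaled relative to a standard on each plate; highest value over a series up to 38 µM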
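Spectral profiling of library compounds in pH 8.0 Tris: 15 min room-temperature incubation, single ex/em pair (570/671 nm), response normalized to Alexa 647 equivalents.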
AID923 – qHTS Assay for Allosteric/Competitive Inhibitors of Caspase-1: Spectroscopic Profiling in AFC Spectral Region. compound fluorescence, AFC spectral region (405/520 nm); almost no hit is shown here. Potency, µM (highest dose often 57.5 µM), for the others: top-dose fluorescence increase, actives largely listed as activators. 75,000 compounds, 1.1% hits. AID 923, 2007; active means well fitted activation curve with a large enough effect; inconclusive means small, poorly fitted or top-dose-only effect;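 further: potency means the concentration at half of the fitted maximal effect; 0% is about no effect; scaled to a free AFC standard on each plate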
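Baseline compound fluorescence (AFC region, 405 nm ex/520 nm em) taken from the intercept of kinetic reads with 50 nM caspase-1 and 5 uM Ac-WEHD-AFC; normalized to an on-plate AFC standard curve; compounds titrated up to 57 uM.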
Resorufin autofl – compound fluoresces in the resorufin spectral region | Compound fluorescence, resorufin region 547/598 nm, buffer; stronger effect = higher value | AID 588 | 59,000 compounds, 0.04% hits | max dye-equivalent concentration, M; active = above 10 nM dye equivalent; inconclusive = 1 to 10 nM; inactive = 1 nM or less; a few of its hits are not listed in these tables; further: highest value over a series up to 38 µM
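Dye-equivalent concentration values derive from comparing each well's 547/598 nm fluorescence against resorufin standards included on every plate. Incubation was 15 min at room temperature in 100 mM Tris, pH 8.0.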
Active calls of the source: *; i = inactive; ? = inconclusive; · = no result given; & = joins results of further samples; [ ] = another dose, or the depositor's remark.

Start of the listing, in advance, three compounds:
Sequence of screens – A488 fluor | TSHR agonist | A647 autofl | AID923 | Resorufin autofl
> CCOC(=O)c1cc2c(ccn2C)n1CC(=O)N1CCN(c2ccccc2OC)CC1
    i | -4% | 4.6e-08 | 5.1% | i
> COc1cccc(C2CC(c3ccccc3OC)n3ncnc3N2)c1 (configuration not stated)
    · | 7% | · | -3.0% | ·
> CCOC(=O)N1CCC(NC(=O)CCc2cn(C)c3ccccc23)CC1
    i | 4% | 4.5e-09 | -1.1% | i

The listing, from the first entry:
Sequence of screens – A488 fluor | TSHR agonist | A647 autofl | AID923 | Resorufin autofl
> CCOC(=O)c1cc2c(ccn2C)n1CC(=O)N1CCN(c2ccccc2OC)CC1
    i | -4% | 4.6e-08 | 5.1% | i
> COc1cccc(C2CC(c3ccccc3OC)n3ncnc3N2)c1 (configuration not stated)
    · | 7% | · | -3.0% | ·
> CCOC(=O)N1CCC(NC(=O)CCc2cn(C)c3ccccc23)CC1
    i | 4% | 4.5e-09 | -1.1% | i
> CC1(C)C(=O)C2(CCCC2)C(=O)OC1c1ccco1 (configuration not stated)
    i | 6% | 4.4e-09 | 1.2% | i
> CCCn1cnc2c(c1=O)c1nc3ccccc3nc1n2Cc1ccccc1OC
    i | 3% | 4e-09 | 2.4% | i
> COc1ccc(-c2nnc(SCc3ccccc3)n2N)cc1
    i | ? | 4.7e-09 | -1.8% | i
> Cc1ccc(S(=O)(=O)Cn2nnnc2C(c2ccc(F)cc2)N2CCC(C(N)=O)CC2)cc1 (configuration not stated)
    i | -4% | 1.7e-09 | 1.4% | i
> CC1(C)Cc2noc(N)c2C(C)(C)N1OC(=O)c1ccccc1
    i | -4% | 1e-09 | -0.1% | i
> COc1ccc(C(c2sc3nc(C)nn3c2O)N2CCCCC2)cc1 (configuration not stated)
    · | -6% | · | 0.5% | ·
> CCN(CC)C(=O)c1sc(NC(=O)c2ccoc2C)c(C(=O)OC)c1C
    · | 9% | · | 0.3% | ·
> CCCc1cc(=O)[nH]c(Nc2ccc(N3CCCCC3)cc2)n1
    i | -10% | 1.4e-08 | -3.1% | i
> COc1ccc(CCNC(=O)c2cc(-c3ccccc3)on2)cc1OC
    i | 3% | 3e-09 | 1.6% | i
> COc1ccc(C)cc1NC(=O)CN1CCN(S(=O)(=O)c2ccc(F)cc2)CC1
    i | ? | 2.7e-08 | -0.1% | i
> COC(=O)c1sc(S(=O)(=O)Nc2ccc3cn[nH]c3c2)c(C(=O)OC)c1C
    i | 8% | 2.2e-08 | -0.6% | i
> O=C(CCCN1C(=O)CCC1=O)Nc1cccc(C(F)(F)F)c1
    i | -3% | 9.3e-09 | 1.6% | i
> COc1ccccc1NC(=O)N1CCCC1C(=O)Nc1nnc(C(C)C)s1 (configuration not stated)
    i | 0% | 1e-09 | -1.9% | i
> CCc1ccc(CCC(=O)Nc2nnc(CC)s2)o1
    i | 0% | 1e-09 | -0.1% | i
> N[C@H](C(=O)O)[C@H](O)C(=O)O
    · | ? | · | -2.9% | ·
> CC(C)N(C)C1CCN(C(=O)Nc2ccc(Cl)c(Cl)c2)CC1
    i | 1% | 1.5e-08 | -1.1% | i
> O=C(c1ccco1)N1CCC2(CCCN(C(c3ccccc3)c3ccccc3)C2)CC1
    i | 27% | 1.5e-08 | 0.0% | i
> O=c1cc(O)cc(/C=C\c2ccc(O)c(O)c2)o1
    i | ? | 1e-09 | 2.2% | i
> CCC(Sc1nc2ccccc2c(=O)n1CC1CCCO1)C(=O)NCc1cccnc1 (configuration not stated)
    i | 12% | 3.3e-08 | -1.3% | i
> O=C(c1cnccn1)N1CCC2(CCCN(C(c3ccccc3)c3ccccc3)C2)CC1
    i | ? | 4.3e-09 | 0.6% | i
> Cc1ccc(C2=NCCNC2=O)c(C)c1
    i | 2% | 7e-09 | -1.7% | i
> Cc1ccccc1-n1c(=O)cc(N2CC(C)OC(C)C2)[nH]c1=O (configuration not stated)
    i | 3% | 3.4e-09 | 0.6% | i
> O=C(NCCO)c1ccc(-c2nnc(N3CCOCC3)c3ccccc23)cc1
    · | 1% | · | 0.2% | ·
> CC(C)(C)NC(=O)NC(=O)Cn1cc(C(F)(F)F)ccc1=O
    i | -2% | 1.2e-09 | -0.2% | i
> Nc1nc2n(n1)C(c1cccc(Cl)c1)CC(c1ccc(F)cc1)N2 (configuration not stated)
    · | -11% | · | 1.2% | ·
> COc1ccc2ccccc2c1C1CC(=O)N2CN(C)CSC2=C1C#N (configuration not stated)
    i | 5% | 1e-09 | 0.3% | i
> COc1ccc(-c2cc(C(=O)O)c3ccccc3n2)c(OC)c1
    · | -2% | · | -0.8% | ·
> Cc1n[nH]c(=O)nc1NCc1ccco1
    i | -2% | 1e-09 | -0.4% | i
> COC(=O)c1ccccc1NC(=O)CN1CCC(n2nnc3cc(F)ccc32)CC1
    i | ? | 3.2e-09 | -1.1% | i
> O=C1CC(c2ccccc2)CC(O)=C1C=NCc1ccco1 (configuration not stated)
    i | 4% | 2.6e-09 | 0.9% | i
> CC(NC(=O)c1ccc2c(c1)OCO2)C(c1cccs1)N1CCOCC1 (configuration not stated)
    i | · | 2.2e-08 | 2.0% | i
> O=c1c2[nH]c3ccc(F)cc3c2ncn1CCN1CCOCC1
    i | -3% | 6.6e-09 | -0.7% | i
> COc1ccc(NC(=O)c2cc(S(=O)(=O)N3CCCCC3)ccc2N2CCCCC2)cn1
    i | 17% | 1e-09 | 0.1% | i
> COc1ccc(CN2C(=O)CCC2(C)C(=O)NC2CCCCCC2)cc1 (configuration not stated)
    i | 1% | 3.9e-08 | 0.1% | i
> CCC(c1nnnn1Cc1cccs1)N1CCN(C2CCCC2)CC1 (configuration not stated)
    i | ? | 2.5e-09 | 2.7% | i
> COc1ccccc1COCC(O)CNCC1(N2CCCCC2)CCCCC1 (configuration not stated)
    i | ? | 1e-09 | -0.1% | i
> Cc1cc2c(nn1)CCC/C2=N\O
    i | ? | 4e-08 | -0.1% | i
> COC(=O)C1=C(C)N(C)C(C)=C(C(=O)OC)C1c1cccc(Br)c1
    · | ? | · | 2.3% | ·
> Cc1ccc(F)cc1NC(=O)c1ccc2c(c1)OCO2
    i | 9% | 2.1e-08 | 0.1% | i
> COc1cccc(C2CC(c3ccc(Cl)cc3Cl)Nc3nc(N)nn32)c1 (configuration not stated)
    i | 0% | 1e-09 | 2.3% | i
> CCOC(=O)C1CCCN(Cc2nc(N)nc(Nc3ccccc3)n2)C1 (configuration not stated)
    i | 9% | 7.9e-09 | 1.8% | i
> O=C(CC1Sc2ccccc2NC1=O)OCC(=O)N1CCc2ccccc21 (configuration not stated)
    i | · | 2.3e-09 | -2.7% | i
> O=C(c1cccc(F)c1)N1CCC2(CCCN(Cc3ccccc3)C2)CC1
    i | 14% | 1.2e-08 | -0.1% | i
> CCOC(=O)c1c(N)sc(C(=O)N2CCCCCC2)c1C
    · | ? | · | 3.4% | ·
> CCCOc1nc2c(c(=O)n(C)c(=O)n2C)n1CC
    i | 5% | 3.6e-08 | -1.8% | i
> Cn1c(=O)[nH]c(=O)c2c1nc(N1CCc3ccccc3C1)n2CCSc1nc2ccccc2s1
    i | ? | 2.5e-08 | -1.4% | i
> CN1CCN(c2nc3cc(C(F)(F)F)ccc3n3cccc23)CC1
    i | ? | 9.8e-09 | -1.1%&-0.9% | i
> COC(=O)c1[nH]c2ccc(C)cc2c1NC(=O)CN1CCN(Cc2ccccc2)CC1
    i | -4% | 5.8e-09 | 13% | i
> OCCOCCOCCn1c2ccccc2c2ccccc21
    i | 20% | 5.5e-09 | 0.9% | i
> CN(C1CCS(=O)(=O)C1)S(=O)C12CC3CC(CC(C3)C1)C2 (configuration not stated)
    i | -6% | 1.5e-08 | -1.2% | i
> COCCCNC(=O)CCSc1ccc(Cl)cc1
    · | -4% | · | -2.2% | ·
> Cc1ccc(S(=O)(=O)N2C(=O)CCC2C(=O)Nc2ccc3c(c2)OCCO3)cc1 (configuration not stated)
    i | 7% | 2.5e-08 | -2.3% | i
> CCCCn1cnc2c1c(=O)n(CC(=O)c1cc(C)n(C)c1C)c(=O)n2CC(C)C
    i | 3% | 2.5e-08 | -1.5% | i
> Cc1ccc(NC(=O)COC(=O)c2ccc3c(c2)NC(=O)C2CCCN32)cc1C (configuration not stated)
    i | -8% | 2.3e-09 | 9.7% | i
> CC1CCN(S(=O)(=O)c2cccc(C(=O)N(C)C3CCS(=O)(=O)C3)c2)CC1 (configuration not stated)
    i | 5% | 1.2e-09 | -0.4% | i
> N=c1sccn1CC(=O)NCCc1ccc(Cl)cc1
    i | 7% | 2.5e-08 | -0.9% | i
> Cc1[nH]c2ccc(C(=O)OCCN(C)C)cc2c1C
    i | -18% | 1e-09 | 1.5% | i

The list goes on.
Sequence of screens – A488 fluor | TSHR agonist | A647 autofl | AID923 | Resorufin autofl
> COC(=O)c1cc(NC2c3ncccc3C(=O)N2Cc2ccccc2)cc(C(=O)OC)c1 (configuration not stated)
    i | 23% | 1.1e-09 | -0.6% | i
> COc1ccc(C2C(C#N)=C(N)Oc3cc(C)n(Cc4ccncc4)c(=O)c32)cc1 (configuration not stated)
    i | -4% | 1e-09 | 2.2% | i
> O=C(COC(=O)c1cc(S(=O)(=O)N2CCCCC2)ccc1N1CCOCC1)NC1CCCCC1
    i | 1% | 1e-09 | 0.2% | i
> CCOC(=O)c1[nH]nc(N)c1NC(=O)c1ccc(Cl)cc1Cl
    i | -2% | 3.2e-08 | 0.5% | i
> COC(=O)CC[C@@H](C)[C@@H]1CC[C@@H]2[C@@H]3CC[C@H]4C[C@@H](O)CC[C@@]4(C)[C@@H]3CC[C@]21C
    i | 7%[11.4 µM] | 1e-09 | 0.1%[11.5 µM] | i
> CSc1nc2c(c(=O)n1-c1ccc(F)cc1)SCC2
    i | 7%[11.4 µM] | 1e-09 | 1.8% | i
> O=C(NCCc1ccccc1)C(c1cccs1)N(C(=O)c1csnn1)C1CC1 (configuration not stated)
    i | 7% | 8.7e-09 | -2.7% | i
> Cc1ccccc1-c1nnc(-c2ccccc2)o1
    · | ? | · | 0.6% | ·
> CCC1Oc2ccccc2N(CC(=O)NCCCN2CCCCC2CC)C1=O (configuration not stated)
    i | 8% | 3.2e-08 | 0.6% | i
> CC(=O)N(C(C)=O)c1ncc2c([nH]c3ccccc32)c1C#N
    · | ? | · | 1.3% | ·
> Cn1c(=O)c2c(nc(CN3CCOCC3)n2CC(O)CO)n(C)c1=O (configuration not stated)
    i | 0% | 1.9e-08 | -1.1% | i
> O=C(Cn1nnc(-c2ccc(Cl)cc2)n1)NCCC1=CCCCC1
    i | 4%[11.4 µM] | 1e-09 | 0.5% | i
> CS(=O)(=O)c1ccc2nc(NC(=O)CC3CCCC3)sc2c1
    i | 13% | 1e-09 | 1.3% | i
> COc1ccc(S(=O)(=O)NC(C(C)C)C(C)C)cc1OC
    i | 7% | 2.7e-08 | 1.2% | i
> CCOC(=O)CN(C(=O)CSc1nnc2c(n1)[nH]c1ccc(OC)cc12)c1ccc(F)cc1
    i | 1% | 1e-09 | 1.1% | i
> CC1=C(C)C(=O)N(CCC(=O)O)C1=O
    · | 7% | · | 2.2% | ·
> CCC(=O)c1cc2c(cc1NC(=O)c1ccc(C)cc1)OCCO2
    i | 16% | 1e-09 | -2.5% | i
> Nc1nonc1-c1nc2ccccc2n1Cc1ccc(F)cc1Cl
    i | ? | 2.4e-08 | 3.6% | i
> Cc1noc(NS(=O)(=O)c2ccc(NC(=O)CCC3CCCC3)cc2)c1C
    i | 27% | 1e-09 | -1.8% | i
> CCSC1=N/C(=C\c2ccc3c(c2)OCO3)C(=O)S1
    · | 11% | · | 16% | ·
> CC(=O)NCCc1cc2ccc(C)c(C)c2[nH]c1=O
    · | ? | · | -2.4% | ·
> Nc1nc2ccccc2n1/N=C/c1ccc(-c2ccccc2)o1
    i | · | 3.2e-08 | 0.1% | i

The list is partial; count on the stated rates, not on these rows.
